S aureus helic: blocks Staphylococcus aureus DNA helicase; purified S. aureus helicase, fluorescence unwinding assay; about half of the hits fall short of the stated cut; inhibition, %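 (tested at about 80 µM)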; 0.05% of 120,000 active; AID 485395;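 active means both duplicates at 50% or more, or one of them with a favoured structure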;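 further: 0% = mean of negative control wells and 100% = mean of positive control wells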
MgrA-DNA mod: S. aureus MgrA-DNA binding modulation | AID 602314 | inhibition, %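 (about 10 µg/mL by stock and volumes)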 | 0.13% of 84,000 active | fluorescence polarization;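 active means above 50% in either of two replicates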;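 further: 0% = protein plus DNA without compound and 100% = DNA alone without protein; higher means less MgrA bound to DNA so lower polarization; one replicate is shown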
Starred values were filed as active, the others as inactive; . = not tested or not shown. An excerpt. The share of hits here may be higher or lower than overall.

SMILES | S aureus helic | MgrA-DNA mod
O=C(CSc1nc2ccccc2nc1-c1ccccc1)NCC1CCCO1 (stereo unspecified) | 6.0 | .
Cc1cc2nc(-c3ccccc3)cc(=O)n2[nH]1 | . | -2.7
O=c1c2ccccc2cnn1-c1ccccc1 | . | -0.4
CC1=C(C(=O)OCC2CCCO2)C(c2ccccc2OCc2ccccc2)C2=C(CC(C)(C)CC2=O)N1 (stereo unspecified) | . | 2.9
CN(C)S(=O)(=O)Nc1cccc(-c2cn3c(n2)SCC3)c1 | 8.0 | .
COc1ccc(-n2c(Cc3cc(=O)[nH]c(=O)[nH]3)nnc2SCC(N)=O)cc1 | -13.0 | .
O=C(O)CC1(CC(=O)Nc2ccc3c(c2)OCO3)CCCC1 | . | -2.2
CCc1ccnc(NC(=O)Nc2ccccc2C(C)(C)C)c1 | . | -1.6
Cn1c(SCC(N)=O)nnc1-c1ccc(S(=O)(=O)N2CCCC2)cc1 | 4.0 | -1.2
CCOC(=O)c1c(NC(=O)CSc2nnc(-c3ccccc3)o2)sc2c1CCCC2 | 12.0 | -2.2
CC1CCCN(C(=O)COC(=O)C2=NN(c3ccccc3)C(=O)CC2)C1 (stereo unspecified) | -1.0 | .
CCC(C)NC(=S)N(C)N (stereo unspecified) | 9.0 | .
O=C(NCCCN1CCCC1)c1ccc(CS(=O)Cc2ccccc2Cl)o1 (stereo unspecified) | 31.0 | .
O=C(Cc1n[nH]c(=O)c2ccccc12)Nc1ccc2c(c1)OCCO2 | -11.0 | .
CCn1c(O)c(C=Nc2cccc3c2C(=O)NC3=O)c(=O)n(CC)c1=S | -7.0 | .
O=C(NCCCN1CCCCC1)c1ccc(-n2c(-c3ccccc3)cc3c2CCCC3)cc1 | -3.0 | 0.3
COc1cc(/C=C2\Sc3ccccc3C2=O)c(Br)cc1O | . | -1.3
CC(C)NC(=O)c1ncoc1-c1cccs1 | 8.0 | .
COc1ccc(N2C(=O)NC(=O)/C(=C\c3ccc(OCc4ccc(C(=O)O)cc4)c(OC)c3)C2=O)cc1 | . | 20.3
Cc1c(Cl)cccc1NC(=S)N(Cc1ccco1)C1CCN(C(C)C)CC1 | 9.0 | 0.5
O=c1oc2ccccc2n1CNc1ccccn1 | 7.0 | 1.6
COc1ccccc1CC1(C)NC(=O)N(CC(=O)c2cc(C)n(Cc3ccco3)c2C)C1=O (stereo unspecified) | -4.0 | .
COC(=O)c1ccc(COc2ncnc3ccccc23)o1 | -5.0 | .
COc1ccc(C2=NOC(C(=O)NCc3ccccc3)C2)cc1 (stereo unspecified) | 0.0 | -0.7
COc1cc(OC)c(NC(=O)Nc2nnc(N3CCCC3)s2)cc1Cl | 8.0 | .

(listing goes on)
SMILES | S aureus helic | MgrA-DNA mod
Clc1ccc(Cl)c(Sc2ncnc3ccsc23)c1 | . | 5.9
COc1ccc(NCn2c3ccccc3c3ccccc32)cc1 | 11.0 | -2.4
CCC(C#CCN1CCCCC1)(CC)OC(C)=O | 4.0 | -1.4
Cc1nnc(Nc2ccccc2)n(N)c1=O | 7.0 | .
CSc1nc(N)n(-c2cc(C(F)(F)F)cc(C(F)(F)F)c2)n1 | . | -0.7
CC(C)CN1C(=O)c2ccc(C(=O)NC3CCCCC3)cc2C1=O | -5.0 | .
COc1ccc(N2CC(NC(=O)NCCn3c(C)cc4ccccc43)CC2=O)cc1OC (stereo unspecified) | 5.0 | .
O=C(NO)C12CC3CC(CC(C3)C1)C2 | -19.0 | .
Cn1cc(NC(=O)Nc2ccc(C(F)(F)F)cc2)c(C(F)(F)F)n1 | . | 1.1
CCOc1cc(C)[nH]n1 | -3.0 | 4.9
NC(=O)c1ccsc1NC(=O)CSc1ccccc1 | 0.0 | .
C/C(N)=C\C(=O)Nc1ccccc1 | 7.0 | 0.4
O=C(CNCC1CCCO1)Nc1ccccc1-n1cccc1 (stereo unspecified) | 3.0 | -2.3
Cc1cc(=O)c2ccccc2[nH]1 | . | 2.0
CCOC(=O)c1cnc2cc(C)[nH]n2c1=O | 24.0 | -2.5
CC(O)c1nc2ccccc2n1CCOc1ccccc1 (stereo unspecified) | 11.0 | .
COc1ccc(OC)c(/C=C2\SC(=Nc3ccccc3Cl)NC2=O)c1 | . | -0.2
COc1ccc2oc(C(=O)OCc3cc(=O)oc4cc(C)ccc34)c(C)c2c1 | 15.0 | .
O=C(OCCNc1nc(-c2ccccc2)nc2ccccc12)c1ccncc1 | 8.0 | -8.8
COc1ccc(CCN2C(=O)CC(C(=O)O)SC2=Nc2ccc(Cl)cc2)cc1OC (stereo unspecified) | . | -5.2
COC(=O)C1CN(C(=O)c2ccc(C(C)(C)C)cc2)c2ccccc2O1 (stereo unspecified) | 16.0 | .
Cc1cc(C)[n+]2nc(-c3ccccc3)sc2n1 | -5.0 | 3.0
CN1C2CCC1/C(=C\c1ccccc1)C(=O)/C2=C\c1ccccc1 | 7.0 | 1.2
Cn1cc(C(=O)O)ccc1=O | 14.0 | -3.7
Cn1c(=O)cc(OCCCC(=O)N2CCCCCC2)c2ccccc21 | 20.0 | -1.0

Further records follow:
SMILES | S aureus helic | MgrA-DNA mod
c1ccc(-c2cnc3nonc3n2)cc1 | 14.0 | 2.3
O=C(Nc1ccc2ccccc2n1)C1CCCCC1 | . | -1.2
O=C1Cn2c(nc3ccccc32)N1c1ccccc1F | 9.0 | -0.1
O=C(CC1(O)C(=O)Nc2ccc(Br)cc21)c1ccc(-c2ccccc2)cc1 (stereo unspecified) | . | -0.8
CC1=C(C(=O)N(C)C)C(c2ccccc2Cl)NC(=O)N1 (stereo unspecified) | 16.0 | -2.8
FC(F)(F)c1ccccc1-c1ccc(-c2nnc(-c3ccco3)o2)o1 | 6.0 | .
Cc1ccc(Cn2c(CO)cnc2SCC(=O)N2CC(C)OC(C)C2)cc1 (stereo unspecified) | 11.0 | .
Clc1ccc(-c2csc(COc3ccc4nonc4c3)n2)cc1 | . | -2.4
O=C(Nc1c(Cl)cccc1Cl)N1CCOC12CCCCC2 | -12.0 | .
O=C(Nc1ccc(Oc2ncnc3sc4c(c23)CCCCC4)cc1)c1ccco1 | 7.0 | .
C=CCOc1ccccc1CN(C(=O)c1ccco1)c1ccc2c(c1)OCO2 | -3.0 | .
Cc1ccc(C(=O)CS(C)(=O)=O)cc1 | 2.0 | -1.9
CCC(CC)NC(=O)CSc1nnc(-c2ccc(C)cc2)n1N | 12.0 | .
c1coc(C2NCCc3ccccc32)c1 (stereo unspecified) | . | -1.8
CCN1CC=C2C(C#N)=C(N)C(C#N)(C#N)C(C)C2C1 (stereo unspecified) | -4.0 | 3.2
CC(C)(C)c1ccc(OCC(=O)NC(c2ccccc2)c2ccccc2)cc1 | 6.0 | 0.1
O=C(NCc1ccc(S(=O)(=O)NCCSCc2ccco2)s1)c1ccccc1 | . | 2.6
CCCCC[C@H](O)/C=C/[C@H]1C(=O)C[C@H](O)[C@@H]1C/C=C\CCCC(=O)O | . | -0.9
CN1CCCN(c2nc3ccccc3nc2NS(=O)(=O)c2ccc(Cl)cc2)CC1 | 12.0 | .
NC(=O)C1CCN(CC(O)(c2ccccc2)c2ccccc2)CC1 | . | 3.5
O=C(CC12CC3CC(CC(C3)C1)C2)N1CCc2c([nH]c3ccccc23)C1C(F)(F)F (stereo unspecified) | . | -0.9
Cc1onc(-c2c(Cl)cccc2Cl)c1/C(N)=N/OC(=O)C1CC1 | -14.0 | .
CC1CC(C)CN(S(=O)(=O)c2ccc(C(=O)OCc3nnc(-c4ccc(Cl)cc4)o3)cc2)C1 (stereo unspecified) | -5.0 | .
COc1cc(-c2onc3ccc(Cl)cc23)cc(OC)c1OC | -19.0 | .
COc1nc2ccccc2nc1CCC(=O)O | 13.0 | .

Profiles, quoted from the list.
Record of COC(=O)c1ccc(COc2ncnc3ccccc23)o1 → S aureus helic = -5.0; MgrA-DNA mod = .
Record of CCC(CC)NC(=O)CSc1nnc(-c2ccc(C)cc2)n1N → S aureus helic = 12.0; MgrA-DNA mod = .

(more compounds)
SMILES | S aureus helic | MgrA-DNA mod
NC(=O)c1cc(NC(=O)C2CCCC2)cc(C(N)=O)c1 | -19.0 | .
COc1ccc(CCNC(=O)CSc2ccccc2C(=O)N2CCN(C(C)=O)CC2)cc1OC | -19.0 | .
CC1CN(C(=O)N2CCC(C(=O)O)CC2)c2cc(Cl)ccc2O1 (stereo unspecified) | -8.0 | -0.4
Nc1nc(CSc2nnc(-c3ccccc3O)n2Cc2ccccc2)cs1 | 7.0 | 1.1
N#C/C(=C\c1ccc(-c2cc(C(F)(F)F)cc(C(F)(F)F)c2)o1)C(=O)NCCc1c[nH]c2ccccc12 | -11.0 | .
O=c1[nH]nc(-c2ccc(F)c(Cl)c2)c2ccccc12 | . | -0.7
O=C(Cn1cnc2scc(-c3ccccc3)c2c1=O)N1CCCC1 | 10.0 | .
O=S(=O)(NC1CCCC1)c1cccc2cccnc12 | 10.0 | -1.4
CC1(C)CC(=O)C(C=NCc2ccccc2)=C(O)C1 | -3.0 | 2.4
Cc1[nH]c2ccccc2c1C(c1ccccn1)N1CCC(C)CC1 (stereo unspecified) | 12.0 | .
CC1(C)CCc2cc(/C=C(\C#N)S(C)(=O)=O)ccc2O1 | . | 0.4
Cc1nc2cc(NC(=O)c3ccc(Br)s3)ccc2s1 | 1.0 | .
CCCCn1c(SC2CCCCC2=O)nc2cc(S(N)(=O)=O)ccc21 (stereo unspecified) | -2.0 | .
CC(C)CCC1(C)NC(=O)N(Cc2ccc(C#N)cc2)C1=O (stereo unspecified) | 4.0 | .
Cc1nc2ccccc2cc1C(=O)NCc1ccco1 | 1.0 | .
CCCN(CCC)S(=O)(=O)c1ccc(C(=O)Nc2cc(C(F)(F)F)cc(C(F)(F)F)c2)cc1 | . | 3.2
COc1ccccc1Nc1snc2[nH]c(C(=O)c3ccc(C)cc3)cc12 | . | 6.7
O=c1[nH]nc(SCc2ccccc2)n1C1CC2C=CC1C2 (stereo unspecified) | -20.0 | .
CN(CCOc1cccc(C(F)(F)F)c1)Cc1ccccc1 | -19.0 | .
C/C(Cc1ccccc1OC(=O)c1ccccc1)=N/O | -6.0 | -2.0
O=C(Cc1ccccc1Cl)NC1(O)C(=O)c2ccccc2C1=O | . | -1.5
CC(=O)N1CCN(C(=O)c2cccc(Oc3ccccc3)c2)CC1 | -8.0 | 0.4
COc1ccc(C2CC(c3ccc(C)cc3)=NN2S(=O)(=O)c2ccc(C)cc2)cc1 (stereo unspecified) | -15.0 | 16.4
S=c1[nH]nc(SCc2ccccc2)s1 | 5.0 | 8.9
CC(C)Cn1c(N)c(C(=O)CSc2ncccn2)c(=O)n(C)c1=O | -4.0 | .

Later entries.
SMILES | S aureus helic | MgrA-DNA mod
CCSc1nnc(-c2ccncc2)n1Cc1ccccc1 | 11.0 | -0.9
CCOC(=O)c1c(CSc2ccccc2)n(C2CCCCC2)c2cc(Br)c(O)cc12 | . | -1.6
COc1ccc(C2CC(C(F)(F)F)n3ncc(C(=O)NCC4CCCO4)c3N2)cc1OC (stereo unspecified) | -1.0 | -0.6
COc1cc(OC)c(C(=O)OC2CCCC2=O)cc1OC (stereo unspecified) | 17.0 | .
Cc1ccc(NC(=O)Cc2ncon2)cc1Cl | . | -1.8
CC1=C(C(=O)O)N2C(=O)[C@@H](NC(=O)C(N)c3ccccc3)[C@H]2SC1 (stereo partly specified) | . | 3.8
O=C(N/N=C/C1=C(N2CCOCC2)C(=C\c2ccccc2)/CC1)NC1CCCCC1 | 8.0 | .
COc1ccc(COCC(O)CN2CC(C)OC(C)C2)cc1 (stereo unspecified) | -1.0 | .
CCc1nc2ccccc2n1C(=O)CCCC(=O)O | -15.0 | -5.7
CCCCn1c(CCCNC(=O)CC)nc2ccccc21 | 0.0 | .
CCOC(=O)C1CCCN(CC(=O)Nc2c(F)c(F)c(F)c(F)c2F)C1 (stereo unspecified) | -6.0 | .
C=CCN1C(=O)/C(=C\c2cc(OC)c(O)c(OC)c2)SC1=S | -11.0 | 0.1
CC(Oc1cccc(C(F)(F)F)c1)c1ccnc(N)n1 (stereo unspecified) | . | -0.6
Cc1ccc(S(=O)(=O)CCSc2nccn2C)cc1 | 24.0 | .
OC(C#Cc1ccccc1)c1ccco1 (stereo unspecified) | 7.0 | 20.3
O=C(O)c1cnc2n(c1=O)CCS2 | . | -1.2
O=C(CSc1nc2ccccc2o1)N1c2ccccc2OCC1c1ccccc1 (stereo unspecified) | 12.0 | .
CC1=C(C(=O)Nc2ccccc2)C(c2ccc(F)cc2)n2ncnc2N1 (stereo unspecified) | -11.0 | .
O=Cc1c2ccc[nH]c-2c2ccccc12 | 7.0 | .
CSC1=C(C#N)C2(CCCCC2)C(C#N)=C(NC(=O)CSc2nncn2-c2ccccc2)N1 | -3.0 | .

Of the compounds above, these contain two or more sulfur atoms.
SMILES | S aureus helic | MgrA-DNA mod
CN(C)S(=O)(=O)Nc1cccc(-c2cn3c(n2)SCC3)c1 | 8.0 | .
Cn1c(SCC(N)=O)nnc1-c1ccc(S(=O)(=O)N2CCCC2)cc1 | 4.0 | -1.2
CCOC(=O)c1c(NC(=O)CSc2nnc(-c3ccccc3)o2)sc2c1CCCC2 | 12.0 | -2.2
Clc1ccc(Cl)c(Sc2ncnc3ccsc23)c1 | . | 5.9
NC(=O)c1ccsc1NC(=O)CSc1ccccc1 | 0.0 | .
O=C(NCc1ccc(S(=O)(=O)NCCSCc2ccco2)s1)c1ccccc1 | . | 2.6
Nc1nc(CSc2nnc(-c3ccccc3O)n2Cc2ccccc2)cs1 | 7.0 | 1.1
Cc1nc2cc(NC(=O)c3ccc(Br)s3)ccc2s1 | 1.0 | .
CCCCn1c(SC2CCCCC2=O)nc2cc(S(N)(=O)=O)ccc21 (stereo unspecified) | -2.0 | .
S=c1[nH]nc(SCc2ccccc2)s1 | 5.0 | 8.9
C=CCN1C(=O)/C(=C\c2cc(OC)c(O)c(OC)c2)SC1=S | -11.0 | 0.1
Cc1ccc(S(=O)(=O)CCSc2nccn2C)cc1 | 24.0 | .
CSC1=C(C#N)C2(CCCCC2)C(C#N)=C(NC(=O)CSc2nncn2-c2ccccc2)N1 | -3.0 | .

Source: PubChem
